ALR H2O2 inh: blocks human ALR sulfhydryl oxidase activity | P55789 | purified ALR, DTT oxidation, H2O2 HRP-luminol luminescence | inhibition, % (no concentration beside the values) | 290,000 tested, 3.8% active | AID 485317;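 active = mean and each replicate at 75% or more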;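 note: stock transfer was 7.5 nL into about 7.5 µL; 0% = neutral wells and 100% = wells with inactivated enzyme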
FGF22 binding: FGF22 (human) thermal shift binding; Q9HCT0; recombinant FGF22 thermal shift, SYPRO orange fluorescence; percent of sucrose octasulfate shift, DMSO zero; calls only at 9.99 µM; 340,000 tested, 1.5% active;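 active = melting point raised past a set limit in the mean and every replicate; three in four hits are not shown here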
Target sequence (Q9HCT0 whole entry, looked up): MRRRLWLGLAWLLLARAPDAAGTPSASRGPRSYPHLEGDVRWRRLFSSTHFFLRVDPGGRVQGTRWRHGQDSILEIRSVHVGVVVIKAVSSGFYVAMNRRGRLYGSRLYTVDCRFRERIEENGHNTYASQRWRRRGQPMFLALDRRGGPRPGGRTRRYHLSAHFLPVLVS
HNF4A DNA FP: change in binding of human HNF4 alpha to DNA; P41235; HNF4a-FITC DNA binding, fluorescence polarization, 1 h; activity change, % at 10 µM; 360,000 tested, 0.3% active; AID 1224865; in the data active = activity change above about 30%, passing the limit was not always enough;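 note: controls were the assay level and a saturating level of protein; the project sought stronger binding though the title names inhibitors; some compounds called inactive have numbers as strong as hits; positive values seem to mean higher polarization but the record does not say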
Target sequence (P41235 whole entry, looked up): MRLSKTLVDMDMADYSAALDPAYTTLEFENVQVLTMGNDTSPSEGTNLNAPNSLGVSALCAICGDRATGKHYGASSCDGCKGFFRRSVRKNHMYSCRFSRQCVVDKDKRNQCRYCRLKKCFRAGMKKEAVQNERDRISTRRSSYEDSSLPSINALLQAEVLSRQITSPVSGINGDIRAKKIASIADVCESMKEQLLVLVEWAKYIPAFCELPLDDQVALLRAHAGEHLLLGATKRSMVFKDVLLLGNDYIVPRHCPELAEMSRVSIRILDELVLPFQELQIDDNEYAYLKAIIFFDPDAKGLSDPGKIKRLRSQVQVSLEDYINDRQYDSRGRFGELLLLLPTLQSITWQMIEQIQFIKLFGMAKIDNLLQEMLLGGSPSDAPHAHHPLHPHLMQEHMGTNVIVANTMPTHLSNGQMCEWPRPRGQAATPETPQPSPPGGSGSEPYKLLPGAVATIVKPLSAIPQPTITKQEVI
LANA-H2A inh: blocks KSHV LANA binding to histone H2A/H2B; Q9QR71; cell-free LANA-H2A/H2B peptide, fluorescence polarization; inhibition, % (test concentration not listed); 320,000 tested, 0.6% active; in the data active = inhibition mostly above about 10%, no sharp cut-off; inactive = mostly below about 6.7%;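 note: stock transfer was 7.5 nL into about 10 µL; 0% = median of vehicle wells and 100% = median of positive control wells; one replicate is shown; the record names a cut of 25% in any replicate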
Ecoli growth: blocks Escherichia coli growth; OD600, 23 h; stronger effect = lower value; OD600 absorbance (concentration not given with the values); 330,000 tested, 0.21% active;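 active = OD600 absorbance below the run mean of sample wells minus 3.6 SD, in any replicate, cut at about 0.56 in these data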;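 note: stock transfer was 300 nL into about 60 µL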
UCH37 DUB inh: human UCH37 deubiquitinating enzyme inhibition | inhibition, % (test concentration not listed) | Q9Y5K5 | 330,000 tested, 0.33% active | purified proteasome/UCH37, Ub-AMC cleavage fluorescence;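 active = mean of two replicates above 20%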;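 note: 0% = compound-free wells with enzyme and 100% = wells lacking proteasome; stock transfer was 100 nL into about 20 µL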
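Schedule: 30 min plus 25 min, room temperature / Material: human UCH37 within purified proteasomes / Technique: AMC fluorescence intensity at 355/460 nm / Buffer or medium: pH 7.4 Tris-HCl (50 mM) with ovalbumin, ATP-MgCl2, DTT / Controls: wells without proteasome as full block, compound-free enzyme plus substrate as uninhibited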
B2AR ag: agonists of human beta-2 adrenergic receptor inducing internalization; P07550; Am2.2-beta2AR cells, FAP receptor internalization, flow cytometry; reference of the scale not given here; response, % (test concentration not listed); 340,000 tested, 0.43% active;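 active = response above a set limit, near 3 SD of response in nonfluorescent compounds, cut at about 42% in these data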;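 note: stock transfer was 100 nL into about 11 µL; a reference agonist was the positive control; negative values mostly stem from fluorescent compounds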
Target sequence (P07550 whole entry, looked up): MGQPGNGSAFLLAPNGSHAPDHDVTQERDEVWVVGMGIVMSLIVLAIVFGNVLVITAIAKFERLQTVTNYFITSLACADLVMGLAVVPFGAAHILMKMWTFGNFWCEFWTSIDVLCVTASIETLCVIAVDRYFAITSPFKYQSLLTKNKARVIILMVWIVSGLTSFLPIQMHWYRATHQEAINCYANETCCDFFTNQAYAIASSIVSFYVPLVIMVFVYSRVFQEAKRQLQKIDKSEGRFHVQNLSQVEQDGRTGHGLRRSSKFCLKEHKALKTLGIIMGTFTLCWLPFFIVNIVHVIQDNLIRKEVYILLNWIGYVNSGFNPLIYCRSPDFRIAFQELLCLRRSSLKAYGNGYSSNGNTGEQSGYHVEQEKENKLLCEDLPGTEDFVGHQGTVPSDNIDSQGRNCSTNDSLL
Numbers without * were called inactive; i = inactive; nt = no result given. A portion of the library. The share of hits here may be higher or lower than overall.

SMILES	ALR H2O2 inh	FGF22 binding	HNF4A DNA FP	LANA-H2A inh	Ecoli growth	UCH37 DUB inh	B2AR ag
CC(NC(=O)COc1ccccc1-c1ccccc1)c1ccccc1 (stereo unspecified)	0	i	-1.4	2.8	0.65	5.9	11
COc1ccc(CN2C3CCCC2CC(NC(=O)Nc2cccc(C)c2)C3)cc1 (stereo unspecified)	nt	nt	0.9	-3.2	0.68	0.9	-11
C/C(=N\NC(=O)c1nnn(-c2nonc2N)c1COc1ccc(F)cc1)c1ccc(Cl)cc1	nt	i	-2.9	-3.1	nt	nt	1
O=C(Cc1cccc(NC(=O)C2CCCN(C(=O)C3CC3)C2)c1)Nc1ccc(C(=O)N2CCCCC2)cc1 (stereo unspecified)	nt	i	4.4	nt	0.71	1.6	-5
CCCCOc1ccccc1NC(=O)c1ccc(=O)[nH]c1	-9	nt	4.3	3.4	0.66	1.2	-10
Nc1ccccc1Oc1ccc2ccccc2c1	24	i	0.8	-0.9	nt	nt	3
Cn1c(CSCc2ccccc2Cl)nnc1SCC(=O)Nc1nccs1	-9	nt	-0.7	0.7	0.7	0.7	3
Cc1ccc(C(=O)NCc2ccc(F)cc2)cc1NC1=NC2CS(=O)(=O)CC2S1 (stereo unspecified)	-5	i	5.3	-1.1	0.7	4.8	0
CCCc1cc(=O)[nH]c(SCc2cccc(C)c2)n1	0	nt	2.3	5.9	0.69	5.0	-7
CN1CCN(c2nc3ccccn3c(=O)c2/C=C(\C#N)S(=O)(=O)c2ccccc2)CC1	nt	i	0.0	0.3	0.61	-4.7	-2
O=C(O)CCCC(=O)OCc1c(-c2ccccc2)ncc2ccccc12	4	i	-0.7	-4.3	0.65	0.4	0
COc1ccc(CCN=C(N)NS(=O)(=O)c2cccs2)cc1OC	-6	i	1.2	0.3	0.69	0.0	3
Cc1[nH]c2c(C)cccc2c(=O)c1Br	-23	nt	-2.0	-0.6	0.62	-0.5	-16
COc1ccccc1OCC(=O)Nc1ccc(-c2nnc(-c3ccco3)o2)cc1	-14	i	-1.8	1.4	0.69	-5.6	-2
COc1ccc(CNCCC(c2ccccc2)c2ccc(OC(C)C)cc2)cc1OC (stereo unspecified)	-7	i	5.0	5.1	0.64	1.6	35
O=C(NCC(=O)N1CCOCC1)c1ccc(Cl)c(Cl)c1	nt	i	-2.2	-3.2	0.67	-0.2	-2
CC1CCc2c(sc3nc(C(C)(C)C)nc(N4CCN(C(=O)CCl)CC4)c23)C1 (stereo unspecified)	3	i	-4.0	-6.8	nt	nt	50*
CCc1ccc(S(=O)(=O)N2CCN(c3ccccc3OC)CC2)cc1	-4	i	0.6	5.4	0.66	-1.1	11
Cc1ccc(N/C(SCc2ccccc2C)=C(/C#N)C(=O)NCc2ccco2)cc1C	-21	nt	1.5	2.5	0.76	7.9	2
COc1ccc(NC(C)=O)cc1NC(C)C(=O)Nc1cccc2ccccc12 (stereo unspecified)	33	nt	-0.5	0.9	0.69	2.4	-5
CCOC(=O)C1=C(COC(=O)/C=C/c2cccc(OC)c2)NC(=O)NC1C (stereo unspecified)	1	i	1.4	-0.3	0.66	-15	13
O=C(COc1cccc(F)c1)N1c2ccccc2Sc2ccccc21	57	nt	1.1	12	0.69	3.9	-1
CCOc1cc2[nH]c(=S)n(CCN3CCCCC3CC)c(=O)c2cc1OCC (stereo unspecified)	47	nt	0.5	0.3	0.67	5.5	-1
COC(=O)C1=C(C)N(Cc2ccco2)C(=O)/C1=C\c1ccc([N+](=O)[O-])cc1	nt	i	1.2	9.7	0.69	2.6	19
Cc1ccc(S(=O)(=O)Nc2ccc(-c3ccc4nncn4n3)cc2)cc1	-4	i	-0.5	-0.2	0.64	3.9	2
Other compounds:
SMILES	ALR H2O2 inh	FGF22 binding	HNF4A DNA FP	LANA-H2A inh	Ecoli growth	UCH37 DUB inh	B2AR ag
Cc1cc(C)c2cc(CN(CCN3CCCC3)C(=O)Nc3ccc(F)cc3)c(=O)[nH]c2c1	-12	nt	7.1	-0.5	0.66	-1.4	-1
COc1ccc(CN(CC(=O)NC2CCCC2)C(=O)c2ccc(-c3ccccc3)[nH]2)cc1	nt	i	-1.0	-3.1	0.64	1.8	-4
O=C(Cn1cnc2c(nnn2-c2ccccc2)c1=O)NCc1ccco1	-20	i	1.2	0.7	0.77	5.6	-3
CCC(=O)c1ccc(OCC(=O)OCC(=O)N2CCCc3ccccc32)cc1	-69	i	2.7	-1.2	0.62	3.5	0
Oc1ccc(C=NNc2nc3ccccc3s2)c(O)c1	nt	nt	-2.1	nt	0.61	1.5	5
COc1ccc(OC)c(S(=O)(=O)Nc2ccc(C(N)=O)cc2)c1	-14	i	11	5.5	0.65	3.2	-10
CC(=O)c1ccc(NC(=O)c2cc(CC(C)C)nc3ccccc23)cc1	-14	i	1.8	-0.7	0.64	1.7	8
O=c1[nH][nH]c(C(F)(F)F)c1C=NCc1ccccc1Cl	-10	nt	-0.4	0.2	0.7	4.2	15
CN(C)c1ccc(N/C=C/C(=O)c2ccco2)cc1	nt	nt	6.7	-0.4	0.71	9.9	-1
Cc1nn(C(=O)CCC(=O)NCc2cccc(F)c2)c2ccccc12	-8	i	1.3	4.5	0.73	1.9	2
O=C(CSc1nnc(-c2cccs2)n1-c1ccccc1)NCc1ccco1	-3	nt	-0.2	-1.4	0.67	2.9	-4
COC(=O)c1ccc(OC(=O)C2CC(=O)N(c3ccc(C)cc3C)C2)cc1 (stereo unspecified)	49	nt	2.3	0.6	0.71	-1.1	0
Cc1oc(-c2ccccc2)cc1C(=O)NCc1ccncc1	29	i	2.1	1.0	0.66	2.1	5
Cc1nn(C)c(C)c1NS(=O)(=O)c1c(C)n[nH]c1C	-3	i	-3.1	5.8	0.64	0.2	-4
O=C(Nc1ccc2ncccc2c1)c1ccccc1Br	-21	nt	1.6	5.0	0.62	6.0	10
Cc1cccc(C(=O)Nc2nnc(-c3ccc(C(C)(C)C)cc3)s2)c1	-12	nt	0.0	-5.1	0.71	-5.0	12
O=C1CSC(=O)N1CCOCCN1C(=O)CSC1=O	nt	nt	-1.9	1.0	0.68	4.0	6
O=[N+]([O-])c1ccc(Cl)cc1N/N=C/c1ccncc1	-5	i	-1.7	-2.9	nt	nt	21
COc1ccc(CCNC(=O)c2cc3c(=O)n(C)c4ccccc4c3n2C)c(OC)c1	-5	i	6.7	0.0	0.68	-4.1	14
O=C(N/N=C/c1ccc(N2CCOCC2)o1)c1cccc(C(F)(F)F)c1	40	nt	1.9	2.4	nt	nt	3
COc1cccc2c3c(c(=O)[nH]c12)CC(C)(C)O3	14	i	-0.8	3.1	0.63	-0.3	2
Cc1cccnc1NC(=O)CCc1nnc2ccc(NCc3ccco3)nn12	-8	i	-4.6	-2.2	0.68	1.5	-3
COc1ccc(S(=O)(=O)N2CCC(C(=O)NCc3cccnc3)CC2)cc1C	7	i	0.9	-0.3	0.66	1.4	5
CCCCCOc1ccc(/C(C)=N/NC2=NCCN2)cc1	-24	i	1.4	-10	nt	nt	15
CCOc1ccc(Br)cc1S(=O)(=O)NCC(c1ccc(OC)cc1)N1CCOCC1 (stereo unspecified)	nt	i	-5.6	nt	0.7	2.5	15
(further entries)
SMILES	ALR H2O2 inh	FGF22 binding	HNF4A DNA FP	LANA-H2A inh	Ecoli growth	UCH37 DUB inh	B2AR ag
Cc1cc(C(C#N)c2ccc(Cl)cc2)c(Cl)cc1NC(=O)c1cc(I)cc(I)c1O (stereo unspecified)	-4	i	-9.2	-5.9	nt	-0.3	36
Cc1cc(C)nc(NS(=O)(=O)c2ccc(NC(=O)Cc3ccccc3)cc2)n1	0	i	2.1	3.5	0.7	5.3	2
CCOc1ccc(C(O)Cc2nc3ccccc3n2C)cc1 (stereo unspecified)	nt	nt	0.9	0.3	0.7	-1.6	-4
O=C(Nc1cc(C(F)(F)F)ccc1-n1cncn1)c1ccc(F)cc1Cl	-2	i	13	-0.2	0.69	6.1	-1
OCC1OC(n2cnc3c(N4CCCCC4)ncnc32)C(O)C1O (stereo unspecified)	nt	i	2.1	nt	nt	nt	1
C=CCN(CC=C)C(=O)C1CCN(S(=O)(=O)c2ccc(N3CCCC3=O)cc2)CC1	-13	i	2.8	15*	0.73	0.4	-19
O=C(Nc1cccc(O)c1)c1ccc(C(F)(F)F)cc1	11	nt	-1.6	-8.1	0.63	3.8	0
Cc1ccc(-c2csc(N(CCCN(C)C)C(=O)c3ccco3)n2)cc1	-8	i	2.1	-1.6	0.69	5.9	10
COC(=O)c1[nH]c2ccc(Cl)cc2c1NC(=O)C1CC1	-9	nt	2.2	-4.5	0.7	nt	-1
O=[N+]([O-])c1cccc(S(=O)(=O)N2CCCCCC2)c1	-75	nt	0.4	-2.1	0.67	3.6	-3
COCCNC(=O)C(=O)N/N=C(\C)CC(=O)Nc1cccc(C(F)(F)F)c1	16	i	6.5	2.6	nt	nt	5
CCc1nnc(SCCSc2nnc(CC)n2N)n1N	-2	nt	1.0	-3.2	0.69	-0.4	-6
COc1ccc(C(=O)N/C(=C/c2cccs2)C(=O)NN)cc1OC	12	i	-2.1	-0.8	0.67	6.7	-41
CN(C)c1ccc(C2NC(=O)c3ccccc3N2)cc1 (stereo unspecified)	5	i	9.8	-5.4	0.6	2.6	-2
COc1cc(OC)cc(-c2cc3nc(C)c(CCC(=O)NCc4ccccc4)c(C)n3n2)c1	-2	i	1.1	-2.2	0.73	-29	-2
C=CCOc1ccccc1CN1CCC(n2nccc2NC(=O)c2ccccc2)CC1	0	i	-3.6	-1.6	0.67	4.3	-2
COc1cc(C(=O)N/N=C/c2coc3ccc(Cl)cc3c2=O)ccc1O	44	i	0.0	-4.5	nt	nt	6
CCc1nnc(NC(=O)CN2C(=O)CCC2=O)s1	-6	nt	-1.3	-4.0	0.68	6.5	-1
COc1ccccc1N(C(=O)Cn1nnc2ccccc21)C(C(=O)NCc1ccco1)c1ccc(C)o1 (stereo unspecified)	-7	nt	-0.1	2.4	0.78	4.9	1
CCc1nnc(NS(=O)(=O)c2ccc(NC(=O)c3cccc(OC)c3)cc2)s1	5	i	3.6	3.2	0.61	-1.5	0
COc1ccc(N2C(=O)CSC2c2ccc([N+](=O)[O-])cc2)cc1 (stereo unspecified)	98*	i	-3.2	5.4	0.7	1.7	-2
Cc1ccc(S(=O)(=O)CCC(=O)c2cccc([N+](=O)[O-])c2)cc1	58	i	1.2	5.4	nt	nt	10
C=CCn1c(SCc2nc3ccccc3[nH]2)nnc1-c1cccc(OC)c1	-5	nt	5.6	-1.6	0.75	2.1	14
Cc1ccc(C(=O)NCCc2nnc3ccc(SCC(=O)Nc4ccccc4C)nn23)cc1	nt	nt	-2.0	nt	0.67	0.8	0
O=C(O)c1ccc(CSc2ncnc3c2cnn3Cc2ccccc2)cc1	nt	i	1.4	nt	0.71	1.1	8
Further compounds.
SMILES	ALR H2O2 inh	FGF22 binding	HNF4A DNA FP	LANA-H2A inh	Ecoli growth	UCH37 DUB inh	B2AR ag
O=C(OCC(=O)c1ccc(Cl)cc1Cl)c1cnccn1	-2	i	-1.0	-0.5	0.66	1.6	-4
COc1ccc(CCNC(=O)CCC(=O)N2CC(C)Oc3ccccc32)cc1OC (stereo unspecified)	-4	i	4.3	6.3	0.8	3.1	5
COc1cc(/C=C/C(=O)NCc2cccnc2)cc(OC)c1OC	11	nt	0.6	0.3	0.72	-10	3
CC1CCc2c(sc(NC(=O)COC(=O)c3ccccc3NCc3ccco3)c2C#N)C1 (stereo unspecified)	-9	nt	1.4	0.9	0.74	-477	-1
O=C(CSc1cccc[n+]1[O-])N1CCCc2ccccc21	4	i	1.8	1.5	0.71	5.9	-7
CN(C)c1ccc(N/C=C/C(=O)C(F)(F)F)cc1	nt	nt	6.5	-4.3	0.73	10	-3
Nc1ncn(C23CC4CC(CC(C4)C2)C3)n1	-3	nt	-0.2	-5.2	0.72	5.2	1

Screening data as filed in PubChem.
